High-throughput results (PubChem)
PV pol inh – poliovirus RNA polymerase inhibition. P03300. poliovirus polymerase elongation, fluorescence polarization; active compounds read low. % elongation, % (compound at 16.7 µg/mL). hit rate 0.66% among 150,000; in the data active means % elongation below about 90%; further: some results filed as inactive read as strong as hits
Target sequence (P03300 1749-2209 limits assumed): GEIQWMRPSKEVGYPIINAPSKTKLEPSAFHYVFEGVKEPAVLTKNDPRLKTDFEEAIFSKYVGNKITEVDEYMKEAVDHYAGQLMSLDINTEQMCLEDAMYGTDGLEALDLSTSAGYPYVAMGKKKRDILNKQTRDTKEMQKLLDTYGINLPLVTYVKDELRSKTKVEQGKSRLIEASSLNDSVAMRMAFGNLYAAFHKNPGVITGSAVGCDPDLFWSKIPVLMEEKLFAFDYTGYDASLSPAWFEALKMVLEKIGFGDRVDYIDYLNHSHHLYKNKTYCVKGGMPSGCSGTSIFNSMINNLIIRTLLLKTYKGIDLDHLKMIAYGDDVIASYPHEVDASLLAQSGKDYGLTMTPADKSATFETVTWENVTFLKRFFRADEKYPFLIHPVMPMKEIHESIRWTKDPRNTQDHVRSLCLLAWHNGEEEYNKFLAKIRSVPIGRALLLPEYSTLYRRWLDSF
PV pol inh intensity – also measured in PV pol inh; calls as there; % elongation; measured here: total intensity read-out; formula for this scale not given here;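 total fluorescence in place of polarization; lower means less elongation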
* hit, by the source's call.

Start of the listing, in advance:
`COCCNC(=O)c1c[nH]c2ccc(S(=O)(=O)Nc3ccc(F)cc3F)cc2c1=O` gave PV pol inh 101 and PV pol inh intensity 103.
`Cc1ccc(/C=C/c2onc(C)c2S(=O)(=O)N2CCC(C(=O)N3CCC(N(C)C(C)C)CC3)CC2)cc1` gave PV pol inh 100 and PV pol inh intensity 99.
Screening CCc1ccc(N(CC)C(=O)c2cn(C)c(=O)c3cc(OC)c(OC)cc23)cc1 returned PV pol inh 101 and PV pol inh intensity 100.
COc1cc(OC)cc(-c2cc3nc(C)c(CCC(=O)NCc4ccc(Cl)cc4)c(C)n3n2)c1 was read as PV pol inh 110 and PV pol inh intensity 104.
Screening CCC12CN3CC(CC)(CN(C1)C3c1cc(Br)ccc1OC)C2=O (stereo not given) returned PV pol inh 107 and PV pol inh intensity 114.
Screening N#Cc1ccc(NS(=O)(=O)c2ccc(-c3cnc(C4CC4)o3)cc2)cc1 returned PV pol inh 103 and PV pol inh intensity 112.
`CCCCNc1nc2c(S(=O)(=O)c3ccc(Br)cc3)nnn2c2ccsc12` gave PV pol inh 100 and PV pol inh intensity 107.
`COc1ccc(OC)c(NC(=O)C2CCN(S(=O)(=O)c3ccc4c(c3)CCCC(=O)N4)CC2)c1` gave PV pol inh 106 and PV pol inh intensity 109.
Screening Cc1nc(C)c(-c2ccc(SCC(=O)Nc3ccccc3F)nn2)s1 returned PV pol inh 110 and PV pol inh intensity 99.
For COc1ccc(-n2c(SCC(=O)c3ccc(Cl)cc3)nc3c([nH]c4ccccc43)c2=O)cc1 the results were PV pol inh 104 and PV pol inh intensity 111.
Screening Cc1ccc(NC(=O)CCS(=O)(=O)c2cccc3nonc23)cc1Cl returned PV pol inh 103 and PV pol inh intensity 105.
CCN(c1cc(C)cc(C)c1)S(=O)(=O)c1nnc(NC(=O)c2ccco2)s1 was read as PV pol inh 109 and PV pol inh intensity 112.

The list itself, previewed entries included:
`COCCNC(=O)c1c[nH]c2ccc(S(=O)(=O)Nc3ccc(F)cc3F)cc2c1=O` gave PV pol inh 101 and PV pol inh intensity 103.
`Cc1ccc(/C=C/c2onc(C)c2S(=O)(=O)N2CCC(C(=O)N3CCC(N(C)C(C)C)CC3)CC2)cc1` gave PV pol inh 100 and PV pol inh intensity 99.
Screening CCc1ccc(N(CC)C(=O)c2cn(C)c(=O)c3cc(OC)c(OC)cc23)cc1 returned PV pol inh 101 and PV pol inh intensity 100.
COc1cc(OC)cc(-c2cc3nc(C)c(CCC(=O)NCc4ccc(Cl)cc4)c(C)n3n2)c1 was read as PV pol inh 110 and PV pol inh intensity 104.
Screening CCC12CN3CC(CC)(CN(C1)C3c1cc(Br)ccc1OC)C2=O (stereo not given) returned PV pol inh 107 and PV pol inh intensity 114.
Screening N#Cc1ccc(NS(=O)(=O)c2ccc(-c3cnc(C4CC4)o3)cc2)cc1 returned PV pol inh 103 and PV pol inh intensity 112.
`CCCCNc1nc2c(S(=O)(=O)c3ccc(Br)cc3)nnn2c2ccsc12` gave PV pol inh 100 and PV pol inh intensity 107.
`COc1ccc(OC)c(NC(=O)C2CCN(S(=O)(=O)c3ccc4c(c3)CCCC(=O)N4)CC2)c1` gave PV pol inh 106 and PV pol inh intensity 109.
Screening Cc1nc(C)c(-c2ccc(SCC(=O)Nc3ccccc3F)nn2)s1 returned PV pol inh 110 and PV pol inh intensity 99.
For COc1ccc(-n2c(SCC(=O)c3ccc(Cl)cc3)nc3c([nH]c4ccccc43)c2=O)cc1 the results were PV pol inh 104 and PV pol inh intensity 111.
Screening Cc1ccc(NC(=O)CCS(=O)(=O)c2cccc3nonc23)cc1Cl returned PV pol inh 103 and PV pol inh intensity 105.
CCN(c1cc(C)cc(C)c1)S(=O)(=O)c1nnc(NC(=O)c2ccco2)s1 was read as PV pol inh 109 and PV pol inh intensity 112.
Cc1coc2cc3oc(=O)c(CC(=O)NCCc4ccccc4F)c(C)c3cc12 was read as PV pol inh 111 and PV pol inh intensity 115.
Screening COc1cccc(C(=O)Nc2ccccc2C(=O)OCc2cc(=O)n3nc(C4CC4)sc3n2)c1 returned PV pol inh 102 and PV pol inh intensity 104.
`O=C(Cn1c(=O)oc2cc(S(=O)(=O)NCc3ccccc3)ccc21)Nc1ccc(F)c(Cl)c1` gave PV pol inh 105 and PV pol inh intensity 111.
`Cc1noc(-c2ccc(N3CCCCC3C)c([N+](=O)[O-])c2)n1` (stereo not given) gave PV pol inh 112 and PV pol inh intensity 98.
Screening CC(C)NC(=O)c1cnc2sc(N3CCCCCC3)nn2c1=O returned PV pol inh 111 and PV pol inh intensity 113.
For Cc1cccn2cc(-c3cccc(NC(=O)C(C)C)c3)nc12 the results were PV pol inh 103 and PV pol inh intensity 107.
Screening CC1Cc2cc(S(=O)(=O)CCC(=O)Nc3ccc(F)c(Cl)c3)ccc2N1C(=O)C1CC1 (stereo not given) returned PV pol inh 105 and PV pol inh intensity 110.
CC(=O)N1c2ccccc2CC1C(=O)N1CCN(c2cc(Cl)ccc2C)CC1 (stereo not given) was read as PV pol inh 114 and PV pol inh intensity 111.
CC1CCN(C(=O)CSC2=NCCS2)CC1 was read as PV pol inh 102 and PV pol inh intensity 99.
CCCCN(C)CCCNC(=O)CN1C(=O)COc2ccc(S(=O)(=O)N3CCOCC3)cc21 was read as PV pol inh 104 and PV pol inh intensity 105.
COc1ccc(-n2c(Cc3ccccc3)nnc2SCc2nc(-c3ccccc3C)no2)cc1 was read as PV pol inh 105 and PV pol inh intensity 107.
`COc1cc(NC(=O)C2CCN(S(=O)(=O)c3c(C)noc3/C=C/c3c(C)cc(C)cc3C)CC2)cc(OC)c1` gave PV pol inh 111 and PV pol inh intensity 107.
For O=C(COc1ccccc1Cl)N(Cc1cccc(F)c1)C1CCS(=O)(=O)C1 (stereo not given) the results were PV pol inh 107 and PV pol inh intensity 112.
`Cc1cccc(C)c1NC(=O)c1ccc2c(c1)nnn2C1CCCC1` gave PV pol inh 108 and PV pol inh intensity 109.
`CCOC(=O)c1c(C)oc2ncnc(N3CCN(c4cccc(Cl)c4)CC3)c12` gave PV pol inh 116 and PV pol inh intensity 109.
Screening COc1ccc(-c2noc(N3CCN(c4cccc(Cl)c4)CC3)n2)cc1OC returned PV pol inh 101 and PV pol inh intensity 109.
`Cc1ccc(CNC(=O)Cn2ccn(-c3ccc(C)c(C)c3)c(=O)c2=O)cc1` gave PV pol inh 104 and PV pol inh intensity 110.
Screening Cc1ccc(NC(=O)c2oc3ccc(S(=O)(=O)N4CCCCC4)cc3c2C)c(C)c1 returned PV pol inh 114 and PV pol inh intensity 103.
For COc1cccc(-n2c(/C=C/c3ccccc3O)nc3ccccc3c2=O)c1 the results were PV pol inh 108 and PV pol inh intensity 107.
Cc1ccc(Cl)cc1N1CCN(C(=O)CSc2cc(=O)n(C)c3ccccc23)CC1 was read as PV pol inh 101 and PV pol inh intensity 102.
For Cc1ccc(Cl)cc1N1CCN(C(=O)C2CCN(Cc3nc(-c4cccc(Cl)c4)oc3C)CC2)CC1 the results were PV pol inh 106 and PV pol inh intensity 107.
For CCc1nc2ccc(C(=O)N3CCN(c4cc(C)ccc4C)CC3)cc2nc1CC the results were PV pol inh 108 and PV pol inh intensity 108.
Screening COc1cc2c(-c3cc(Br)ccc3O)nc3c(c(C)nn3-c3ccccc3)c2cc1OC returned PV pol inh 104 and PV pol inh intensity 112.
`CC1CCCCN1CCCNC(=O)CN1C(=O)c2cccnc2Oc2ccccc21` (stereo not given) gave PV pol inh 110 and PV pol inh intensity 112.
CCCC(=O)Nc1cc2nn(-c3ccc(OC)cc3)nc2cc1C was read as PV pol inh 102 and PV pol inh intensity 103.
`COc1ccc(Cl)cc1-n1c(/C=C/c2cccc3ccccc23)nc2ccccc2c1=O` gave PV pol inh 109 and PV pol inh intensity 116.
`O=C(Cn1ccc2cc(S(=O)(=O)N3CCCCC3)ccc21)NCCc1ccccc1Cl` gave PV pol inh 110 and PV pol inh intensity 107.
`O=C(C1CCN(S(=O)(=O)Cc2ccccc2)CC1)N1CCN(c2ccccc2)CC1` gave PV pol inh 109 and PV pol inh intensity 106.
For COc1ccc(-c2cn3c(n2)sc2cc(C(=O)NCc4cccs4)ccc23)cc1 the results were PV pol inh 111 and PV pol inh intensity 111.
O=C(Cn1cc(C(=O)c2ccccc2)c(=O)c2cc3c(cc21)OCCO3)Nc1ccc(F)c(F)c1 was read as PV pol inh 107 and PV pol inh intensity 108.
Screening Cc1cc(C)cc(NC(=O)Cc2csc(C)n2)c1 returned PV pol inh 109 and PV pol inh intensity 114.
CC(=O)OCc1cnc(C)c2oc(=O)c(C(=O)Nc3ccc(F)cc3C)cc12 was read as PV pol inh 105 and PV pol inh intensity 107.
For COc1ccc(Br)cc1CNC(=O)CN1C(=O)CSc2ccc(S(=O)(=O)N3CCOCC3)cc21 the results were PV pol inh 113 and PV pol inh intensity 113.
Screening CCOc1ccc(C2C(C(=O)Nc3ccc(C)cc3C)=C(C)Nc3c(C(=O)Nc4ccc(C)cc4)cnn32)cc1OC (stereo not given) returned PV pol inh 112 and PV pol inh intensity 115.
Screening Cc1cccc(C(=O)Nc2sc3c(c2C(=O)N2CCCCC2)CCC(C)C3)c1 (stereo not given) returned PV pol inh 107 and PV pol inh intensity 108.
For CCCCc1nn2c(C)c(-c3ccc(OCC)cc3)nc2s1 the results were PV pol inh 103 and PV pol inh intensity 102.
For COc1ccc(-c2noc(-c3ccccc3OCC(=O)Nc3ccc(C(C)=O)cc3)n2)cc1 the results were PV pol inh 113 and PV pol inh intensity 117.
Screening O=C(NCc1ccccc1)C(=O)Nc1c2c(nn1-c1ccc(F)cc1)CSC2 returned PV pol inh 106 and PV pol inh intensity 106.
COc1ccc(Nc2ncc3c(n2)CCN(C(=O)OC(C)(C)C)C3)cc1 was read as PV pol inh 107 and PV pol inh intensity 107.
For Cc1cccc(C)c1NC(=O)CSc1nc2ccccc2c2nc(CCc3c(C)n[nH]c3C)nn12 the results were PV pol inh 108 and PV pol inh intensity 106.
For CC1=C(C(N)=O)C(c2ccc(C(C)C)cc2)n2nc(SCc3ccccc3)nc2N1 (stereo not given) the results were PV pol inh 106 and PV pol inh intensity 110.
For CCCCNC(=O)c1cnc2c(-c3ccc(OCC)c(OCC)c3)c(C)nn2c1-c1ccccc1 the results were PV pol inh 112 and PV pol inh intensity 111.
`COc1ccc(Cn2ccn(CC(=O)Nc3cc(C)ccc3C)c(=O)c2=O)cc1` gave PV pol inh 109 and PV pol inh intensity 112.
Screening COc1ccc(C(=O)NCC(c2ccc(Cl)cc2)N2CCCCC2)cc1 (stereo not given) returned PV pol inh 107 and PV pol inh intensity 106.
Cc1cc(C)cc(-n2ccn(Cc3ccccc3C)c(=O)c2=O)c1 was read as PV pol inh 108 and PV pol inh intensity 113.
Screening COc1ccc(CNc2nc(SCc3ccc(Cl)cc3)nc3ccccc23)cc1 returned PV pol inh 106 and PV pol inh intensity 114.
CCOC(=O)c1cc(-c2ccccc2)n(-c2cccc(C(=O)Nc3cccc(C(C)=O)c3)c2)c1C was read as PV pol inh 102 and PV pol inh intensity 96.
Screening CCN(C(=O)C1CCCN(c2ncnc3c2nc2n3CCCCC2)C1)c1cccc(Cl)c1 (stereo not given) returned PV pol inh 110 and PV pol inh intensity 108.
Screening COc1ccc(-c2noc(COc3ccc(C)cc3C)n2)cc1OC returned PV pol inh 109 and PV pol inh intensity 111.
`COc1ccc(Nc2ncnc3onc(C)c23)cc1Cl` gave PV pol inh 108 and PV pol inh intensity 112.
`Fc1ccc(Nc2c3c(nc4ccccc24)CCC3)cc1` gave PV pol inh 106 and PV pol inh intensity 109.
`Cc1nn(C)c2c1c(C(F)(F)F)cc(=O)n2CC(=O)N1CCCCC1` gave PV pol inh 107 and PV pol inh intensity 103.
`CCOC(=O)c1c(C)oc2nc(C)nc(N(CC(C)C)CC(C)C)c12` gave PV pol inh 104 and PV pol inh intensity 109.
`Cc1ccc(NC(=O)Nc2cccc(C)n2)cc1` gave PV pol inh 104 and PV pol inh intensity 109.
Screening COc1cccc2sc(N3CCN(C(=O)CCS(=O)(=O)c4ccc(F)cc4)CC3)nc12 returned PV pol inh 101 and PV pol inh intensity 108.
`COCCn1c(C)cc(O)c(C(c2ccccc2)N2CCN(C)CC2)c1=O` (stereo not given) gave PV pol inh 105 and PV pol inh intensity 111.
Screening Cc1ccc(NS(=O)(=O)c2cc(-c3cnc(C4CC4)o3)ccc2C)cc1Cl returned PV pol inh 106 and PV pol inh intensity 98.
O=C(NCc1ccc(F)cc1)C1CCN(C(=O)c2cnn(-c3ccccc3)c2-n2cccc2)CC1 was read as PV pol inh 108 and PV pol inh intensity 112.
`Cc1ccc(-c2ccc(=O)n(CC(=O)Nc3ccc(F)c(Cl)c3)n2)cc1C` gave PV pol inh 107 and PV pol inh intensity 112.
For O=C(COC(=O)Cc1ccsc1)NC(c1ccccc1)c1ccccc1 the results were PV pol inh 100 and PV pol inh intensity 100.
Cc1ccccc1-c1noc(-c2ccc(NCC3CCCO3)c([N+](=O)[O-])c2)n1 (stereo not given) was read as PV pol inh 112 and PV pol inh intensity 115.
`Cc1cc(NC(=O)C2CCN(S(=O)(=O)c3ccc(Br)s3)CC2)ccc1Br` gave PV pol inh 111 and PV pol inh intensity 112.
For CCc1ccc(NC(=O)c2ccc3c(c2)nnn3CC)cc1 the results were PV pol inh 105 and PV pol inh intensity 106.
`Cc1cccc(NS(=O)(=O)c2ccc3oc(=O)c4ncn(C)c4c3c2)c1C` gave PV pol inh 103 and PV pol inh intensity 99.
Screening COc1cccc(NC(=O)C(=O)NCC(c2ccc3c(c2)OCO3)N2CCN(C)CC2)c1 (stereo not given) returned PV pol inh 94 and PV pol inh intensity 94.
COc1ccccc1CNS(=O)(=O)c1ccc2c(c1)CC(C)N2C(=O)C1CCC1 (stereo not given) was read as PV pol inh 106 and PV pol inh intensity 99.
`CC(=O)c1ccc(N2CCN(C(=O)Nc3cccc(F)c3)CC2)cc1` gave PV pol inh 110 and PV pol inh intensity 112.
For CCN(CC)CCOC(=O)c1ccc(NC(=O)c2cc3c(s2)-c2ccccc2OC3)cc1 the results were PV pol inh 104 and PV pol inh intensity 105.
`Cc1ccc(OCC(=O)NCC2(N3CCN(C)CC3)CCCCC2)cc1C` gave PV pol inh 114 and PV pol inh intensity 110.
Cc1ccc(NCc2nnc3n2CCCCC3)cc1Cl was read as PV pol inh 111 and PV pol inh intensity 104.
`O=C(C1CCCN(S(=O)(=O)c2ccc(Br)s2)C1)N1CCN(c2ccc(F)cc2)CC1` (stereo not given) gave PV pol inh 110 and PV pol inh intensity 110.

Not all compounds are listed; the hit share may differ from the screen's.
